# From PubChem
# YopH PTP inh = inhibitors of Yersinia enterocolitica YopH tyrosine phosphatase | actives 0.16% (n = 140,000) | fluorescence Ex485/Em525 | inhibition, %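 (about 10 µM by stock and volumes)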;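 active = inhibition of 50% or more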;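 note: controls were vehicle for no effect and minimum signal wells for full effect; inactives centre near -20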
# Mtb H37Rv = M. tuberculosis H37Rv growth inhibitors, H37Rv strain (AID 1626). actives 0.95% (n = 220,000). inhibition, % at 10 µM; hits with a dose series show IC50 in µM. M. tuberculosis H37Rv growth inhibition; higher % means a stronger effect;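 active = confirmed in a dose series; inconclusive = inhibition above 80% but not taken into the dose series; inactive = below 80% or under 30% at every dose of the series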;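 note: bacteria incubated seven days before Alamar blue readout; 0% = bacteria only wells and 100% = bacteria with antibiotic wells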
# Arbovirus anti = arbovirus infection inhibition. arbovirus infection cell-based antiviral screen. inhibition, % at 10 µM. actives 0.37% (n = 200,000);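 active = inhibition from about 30%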;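 note: bluetongue infection of BSR cells; cell survival read as ATP light after 72 h; 0% = infected wells without compound and 100% = uninfected wells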
# RecA splice inh = Mtb RecA intein splicing inhibition; cell-free RecA intein splicing, fluorescence; inhibition, %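 (about 9 µM by stock and volumes)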; actives 0.75% (n = 290,000); P9WHJ3; in the data active = inhibition above about 30%; inconclusive = no clear call, values can overlap the other calls;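 note: 0% = vehicle wells and 100% = reference inhibitor control wells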
# Target sequence (P9WHJ3 whole entry, looked up, canonical isoform): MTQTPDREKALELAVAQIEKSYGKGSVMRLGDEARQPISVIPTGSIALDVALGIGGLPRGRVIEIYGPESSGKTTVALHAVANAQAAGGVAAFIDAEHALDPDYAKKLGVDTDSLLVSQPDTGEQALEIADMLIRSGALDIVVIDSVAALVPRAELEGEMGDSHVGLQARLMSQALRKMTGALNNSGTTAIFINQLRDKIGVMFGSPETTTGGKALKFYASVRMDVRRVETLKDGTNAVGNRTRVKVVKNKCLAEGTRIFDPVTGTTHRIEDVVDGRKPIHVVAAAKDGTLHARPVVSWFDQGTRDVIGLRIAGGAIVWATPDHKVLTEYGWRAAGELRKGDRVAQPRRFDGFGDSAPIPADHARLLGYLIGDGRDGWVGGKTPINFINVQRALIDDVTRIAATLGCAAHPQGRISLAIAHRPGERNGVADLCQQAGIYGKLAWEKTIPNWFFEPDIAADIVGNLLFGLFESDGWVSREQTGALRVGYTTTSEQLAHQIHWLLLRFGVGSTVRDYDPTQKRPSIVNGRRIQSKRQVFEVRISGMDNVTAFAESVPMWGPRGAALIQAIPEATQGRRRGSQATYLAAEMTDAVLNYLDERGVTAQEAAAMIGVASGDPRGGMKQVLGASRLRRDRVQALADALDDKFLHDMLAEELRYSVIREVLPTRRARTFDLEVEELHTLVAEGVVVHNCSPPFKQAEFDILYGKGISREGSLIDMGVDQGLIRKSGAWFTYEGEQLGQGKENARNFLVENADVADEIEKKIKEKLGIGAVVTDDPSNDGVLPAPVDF
# Mtb betalactam = beta-lactam sensitization of Mtb H37Rv | M. tuberculosis H37Rv growth with meropenem, percent inhibition; hits of this screen are not shown here | AID 434955 | actives 0.27% (n = 330,000) | inhibition, % at 25 µM;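 active = about 74% or more and at least 40 points above the plate without the antibiotic, then above 30% in a dose series; inconclusive = first-round hits that could not be retested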;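 note: growth measured after seven days incubation then overnight dye step; 0% = bacteria only wells and 100% = bacteria with antibiotic; twin plates without the antibiotic show which effects depend on it; some results filed as inactive read as strong as hits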
# Arbovirus anti repeat = further read-out of Arbovirus anti, marked with its call; inhibition, %; measured here: 10K subset replicate screen; many hits read low in the repeat;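 first of two repeat runs on a subset; 0% = infected and 100% = uninfected wells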
# * = called active by the depositor; u = inconclusive; x = not tested or not shown.
SMILES,YopH PTP inh,Mtb H37Rv,Arbovirus anti,RecA splice inh,Mtb betalactam,others
CCOC(=O)CNC(=O)CNC(=O)C(Cc1ccc(N(CCCl)CCCl)cc1)NC(C)=O (stereo not given),x,-4%,2,0.1,0,
Cc1onc(-c2ccccc2Cl)c1C(=O)NCCCN1CCOCC1,-44,1%,1,0.5,-22,
Cc1cccc(N2CCN(C(=O)c3cccc(N4CCCC4=O)c3)CC2)c1C,x,x,x,-2.8,1,
Cc1oc(-c2ccc(F)cc2)nc1CN(Cc1ccccn1)CC1CCCO1 (stereo not given),x,-4%,1,9.4,-2,
CCOn1c(SC(C)C)nc2ccccc2c1=O,-9,-10%,-4,-1.6,7,
CCOc1ccc(Cn2nnc(C(=O)Nc3cc(OC)cc(OC)c3)c2N)cc1,-23,6%,-2,0.0,9,Arbovirus anti repeat=0
COc1ccccc1NC(=O)CC1CCCC1,x,x,x,0.9,-4,
Cn1c(=O)c2c(nc(NCc3ccco3)n2CC(O)CO)n(C)c1=O (stereo not given),x,-6%,-4,x,-1,
COc1cc(-c2c(-c3cc(OC)c(OC)c(OC)c3)noc2C)ccc1F,x,x,x,0.0,3,
COCCN(Cc1ccco1)C(=O)C1CCCN(c2ncnc3c2nc2n3CCCCC2)C1 (stereo not given),x,x,x,0.7,-11,
Cc1c(C)c2ccc(OCC(=O)N3CCN(c4ccc(F)cc4)CC3)c(C)c2oc1=O,x,x,x,-2.0,12,
CC(C)c1ccc(CN2CC(C(=O)Nc3ccccc3)CC2=O)cc1 (stereo not given),x,1%,12,-0.9,3,
O=C1Nc2ccc(Br)cc2/C1=C/C1CC=CCC1 (stereo not given),x,-8%,-28,26,4,
CCN(CC)c1ccc(NC(=O)CSc2nnc(N)s2)cc1C,-23,1%,3,x,u,
COC(C(=O)Nc1ccc(Cl)cc1C)c1ccccc1 (stereo not given),-32,-4%,-4,-2.1,2,
Cn1nc(-c2ccc(N3CCOCC3)c(NS(=O)(=O)c3ccc(Cl)cc3)c2)c2ccccc2c1=O,-8,3%,-1,x,45,
S=C(Nc1cc(Cl)cc(Cl)c1)N1CCCC1,x,x,x,1.6,-6,
O=C(NCc1nnnn1-c1ccc(F)c(F)c1)c1ccc(S(=O)(=O)N2CCOCC2)cc1,x,x,x,0.4,2,
Cc1ccc(S(=O)(=O)N(C)CCCC(=O)NC(C)(C)C)cc1,x,-3%,2,-0.1,-10,
COc1cccc(-c2nc(-c3ccccn3)no2)c1OC,-16,-2%,-5,1.6,-3,
CCN(CC(=O)NCc1ccc(Cl)cc1)C(=O)CSc1cc(C)ccc1C,x,x,x,2.0,-9,
C/C(=N\Nc1cc(-c2ccccc2)nc(-c2ccccc2)n1)c1ccc(O)c(C)c1,-20,u,-35,1.5,99,
COc1ccc(CNC(=O)CN(C(=O)CCC(=O)Nc2ccccn2)c2ccccc2OC)cc1,-57,-3%,1,1.8,0,
CC(=O)Nc1nc(C)c(-c2csc(Nc3cccc([N+](=O)[O-])c3)n2)s1,-17,1%,-18,2.1,-2,
Cc1ccncc1C(N)=O,x,x,x,1.1,2,
CC(C)n1cc(/C=C2/SC(=O)N(CC(=O)Nc3ccc4c(c3)OCO4)C2=O)c2ccccc21,-25,51%,-11,0.7,48,
O=C(CCc1nc(-c2ccccc2F)no1)NC1CCCCC1,-2,1%,9,-2.1,3,
COc1cc(C(=O)NNC(=S)Nc2ccc(S(N)(=O)=O)cc2)cc(OC)c1OC,x,-8%,0,-2.7,-5,
Cc1ccc2c(=O)cc(C(=O)NCc3ccccc3)oc2c1C,x,x,x,1.5,5,
Cn1c(=O)c2c(nc(SCCN3CCOCC3)n2Cc2ccc(F)cc2)n(C)c1=O,-37,0%,9,1.9,3,
Cc1[nH]c2ccccc2c1C(=O)CSC(=S)N1CCCCC1,-13,7%,0,0.8,-6,
Cc1ccccc1NC(=O)CN(c1ccc(F)cc1)S(C)(=O)=O,-5,-4%,13,-0.4,1,
O=c1cc(-c2ccccc2)n(S(=O)(=O)c2ccc3ccccc3c2)o1,4,x,x,20,3,
CCCCC/S(CC1CC1(Cl)Cl)=N\S(=O)(=O)c1ccc(C)cc1 (stereo not given),x,5%,-4,-2.7,-8,
CCC(=O)NC(Nc1ccccn1)(C(=O)OC)C(F)(F)F (stereo not given),-28,-6%,4,-0.7,2,
Cc1ccc(-c2sc(C(=O)NN)c(C)c2C#N)cc1,x,2%,x,11,18,
C/C(=N\NC(=O)C(C)Sc1ccccc1)C(C)(C)C (stereo not given),-14,2%,-6,x,-7,
CCOP(=O)(OCC)C(O)c1ccc(OC)cc1OC (stereo not given),-8,2%,-2,1.6,-4,
CCS(=O)(=O)Nc1ccccc1C(N)=O,x,-3%,-2,0.9,3,
C=C(C)C1Cc2c(C)nn(-c3nc(C)cc(C)n3)c2C1 (stereo not given),4,10µM*,8,2.9,99,
CC(=O)Nc1ccc(N=Cc2c(O)c3ccccc3oc2=O)cc1,x,x,x,-3.8,2,
COc1ccc(CCn2c(NN)nc3c2c(=O)[nH]c(=O)n3C)cc1,x,-2%,x,-1.1,2,
CN1CC[n+]2c(CN3C(=O)c4ccccc4C3=O)csc21,8,-2%,-5,1.1,-3,
Cn1cccc1CC(=O)NNC(=S)Nc1ccccc1Cl,-19,5%,9,2.2,1,
CCOC(=O)c1c(N)nn(C(=O)c2ccccc2F)c1-c1ccc(OC)cc1,x,-2%,-7,12,-5,
Cc1ccc(C(=O)Nc2ccccc2C(=O)NC2CCCCC2)cc1S(=O)(=O)N1CCOCC1,1,-5%,-3,-1.1,-7,
CCCN1C(=O)SC(CC(=O)Nc2ccc(C)cc2)C1=O (stereo not given),41,-2%,-2,-0.3,-11,
O=C(Nc1c2c(nn1-c1ccc(F)cc1)CS(=O)C2)C12CC3CC(CC(C3)C1)C2 (stereo not given),15,-7%,6,-0.4,-6,
COc1cc(/C=C/CO)cc(OC)c1O[C@@H]1O[C@H](CO)[C@@H](O)[C@H](O)[C@H]1O,-23,-14%,0,-3.0,-7,
c1ccc(-c2oc3ncnc(NCCCN4CCOCC4)c3c2-c2ccccc2)cc1,-21,-8%,-28,1.5,63,
O=C1N/C(=N\S(=O)(=O)c2ccccc2)S/C1=C\c1cc([N+](=O)[O-])ccc1O,x,x,x,1.6,6,
Cc1ccc(NC(=O)c2cc(-c3ccc(F)cc3)on2)cc1C,x,2%,6,0.9,2,
CC(C)(C)C(=O)Nc1sc2c(c1C#N)CCC2,x,6%,-2,-1.3,-7,
O=C(c1cccc(C(=O)N2CCN(Cc3ccccc3)CC2)c1)N1CCN(Cc2ccccc2)CC1,-2,1%,-6,6.4,-2,
Cc1ccc(S(=O)(=O)N(C)CC(=O)OCC(=O)N2CCN(c3ccccc3)CC2)cc1,-14,-10%,-4,2.3,7,
CCOC(=O)C1CCCN(C(=O)CCn2nc(-c3ccccc3)ccc2=O)C1 (stereo not given),-21,x,8,-2.6,-6,
COc1ccc(NS(=O)(=O)c2cccc(C(=O)NCC3(N(C)C)CCCCC3)c2)cc1,x,x,x,-7.2,5,
COc1ccc(/C=N/NC(=O)CNS(=O)(=O)c2ccc(C)cc2)cc1,x,-6%,0,3.0,-3,
COCC1CCN(C(=O)c2cc(COc3ccc(C)c(C)c3)on2)C1 (stereo not given),x,x,x,-2.1,-1,
CCNC(=O)c1ccccc1-c1nc(-c2ccccc2)no1,x,5%,x,30*,2,
# More records follow:
SMILES,YopH PTP inh,Mtb H37Rv,Arbovirus anti,RecA splice inh,Mtb betalactam,others
O=C(COC(=O)CSc1ccc([N+](=O)[O-])cc1)NCc1cccs1,x,x,x,5.4,-2,
CC12C(=O)N(n3cnnc3)C(=O)C1C1C=CC2C1 (stereo not given),-5,-7%,3,-1.0,-7,
COc1ccc(Nc2ncccc2C(=O)O)cc1,-13,-3%,6,0.5,50,
COC(=O)c1ccc(N(C(=O)CNC(=O)c2ccco2)C(C(=O)NCC2CCCO2)c2ccc(OC)c(OC)c2)cc1 (stereo not given),x,x,x,-0.1,-10,
CCOC(=O)c1c(-c2ccc(OC)cc2)csc1NC(=O)C1CCCO1 (stereo not given),x,6%,-16,5.1,39,
C/C(=N\NC(=O)CSCc1ccccc1Br)c1cccc([N+](=O)[O-])c1,-24,5%,3,-0.6,-8,
COc1ccc(NC(=O)C(C)N2C(=O)c3ccccc3S2(=O)=O)c(OC)c1 (stereo not given),x,x,x,-2.4,-4,
COc1ccc(NC(=S)N2CCN(c3ncccn3)CC2)c(OC)c1,x,-9%,x,-0.3,-10,
COCc1cc(=O)[nH]c(/N=C(\N)Nc2cccc(C)c2)n1,8,6%,-4,2.7,-17,
COC(=O)c1cccc(NC(=S)NC(C)C)c1,x,-1%,7,-2.5,2,
COc1ccc(S(=O)(=O)CCC(=O)N(C)c2ccc(OC)cc2OC)cc1,2,-12%,5,-1.0,-3,
O=C(CN(C(=O)CCC(=O)Nc1ccccn1)c1ccc2c(c1)OCO2)NCc1ccc(F)cc1,x,x,x,0.6,3,
CCN(CC)c1nc2ccccc2[nH]1,-4,-2%,-3,0.0,u,
CCc1ccc(NC(=O)C2CCCCC2C(=O)O)cc1 (stereo not given),-30,87%,0,0.4,96,
S=C(NN=C1C2CC3CC(C2)CC1C3)Nc1ccccc1,-15,-7%,3,0.1,x,
CCCn1c(SCCN2C(=O)c3ccccc3C2=O)n[nH]c1=O,-26,1%,6,4.8,4,
CC(=O)Nc1nc2cc3c(cc2s1)OCO3,-5,-9%,1,1.3,3,Arbovirus anti repeat=-1
COc1ccc(C/C(C)=N\NC(=O)c2cn(C)c3ccccc23)cc1OC,x,-11%,x,3.0,-1,
O=C(c1ccco1)N1C2C=CC(C2)C1(C(F)(F)F)C(F)(F)F (stereo not given),-34,x,16,-1.8,-1,
COC(C(=O)N1CCC(CCC(=O)Nc2ccccc2)CC1)c1ccccc1 (stereo not given),x,x,x,0.2,-6,
CN1CCN(c2cc(N3CCNCC3)ccc2[N+](=O)[O-])CC1,-20,2%,-8,-0.8,1,
CCCN(CCC)C(=O)c1cn(CC)c2ccc(S(=O)(=O)N3CCCCC3)cc2c1=O,x,x,x,3.4,1,
CC(C)CCN1CCN(Cc2cnc(-c3ccccc3)s2)CC1CCO (stereo not given),x,-3%,-11,-1.8,1,
CCc1ccc(N(CC(=O)NCCc2ccccc2)C(=O)CCC(=O)Nc2ccccn2)cc1,x,x,x,0.7,4,
COc1ccc(-c2nnc(NC(=O)c3cc(Cl)ccc3Cl)o2)cc1,-25,1.2µM*,-9,4.2,92,Arbovirus anti repeat=-17
CCOC(=O)COc1ccc(S(=O)(=O)Nc2cccc(SC)c2)cc1,-2,37%,0,-0.6,77,
Cc1ccc(C(=O)N[C@H](C(=O)Nc2ccc(F)cc2)C(C)C)cc1,x,x,x,-2.5,-2,
Cc1ccc2cc3cc(C(=O)NCCN4CCOCC4)oc3nc2c1,-17,0%,8,-1.5,3,
CCCN1C/C(=C/c2cccc([N+](=O)[O-])c2)C(=O)/C(=C/c2cccc([N+](=O)[O-])c2)C1,-26,6%,0,x,x,
O=C(/C=C/c1cn(-c2ccccc2)nc1-c1ccccc1)Nc1ccc(C(=O)O)cc1,x,12%,-1,4.9,52,
CN(C)c1cccc2c(S(=O)(=O)N3CCCC3)cccc12,x,x,x,-10,2,
CCOC(=O)c1c(C(F)(F)F)cc(-c2ccc(F)cc2)nc1C,-27,-1%,19,-2.2,-1,
COc1cccc2cc(-c3cc(=O)oc4cc(C)c(O)cc34)oc12,x,x,x,-8.1,-2,

# An excerpt. The share of hits here may be higher or lower than overall.
